HPGD inh = HPGD (human) dehydrogenase inhibition; P15428; purified HPGD, NADH fluorescence kinetic, PGE2 substrate; Potency, µM, without a hit: at the highest dose activity change, negative = inhibition, usual class: inhibitors; hit rate 4.3% among 150,000; AID 894; active = well fitted inhibition curve with a large enough effect (not every such curve was filed as active); inconclusive = small, poorly fitted or top-dose-only effect, or another doubt; inactive = no such curve, though single readings can be large or run the other way;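 note: top concentration of the series not given in the record; plate controls included wells without enzyme; inactives centre near -10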
Target sequence (P15428 whole entry, looked up): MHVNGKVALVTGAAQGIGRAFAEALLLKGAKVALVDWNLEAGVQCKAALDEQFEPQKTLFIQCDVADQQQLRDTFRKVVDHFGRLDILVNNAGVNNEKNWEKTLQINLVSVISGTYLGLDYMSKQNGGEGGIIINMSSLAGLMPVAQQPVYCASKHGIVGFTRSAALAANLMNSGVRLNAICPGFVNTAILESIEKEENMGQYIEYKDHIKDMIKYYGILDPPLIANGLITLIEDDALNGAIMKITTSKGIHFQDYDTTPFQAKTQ
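20 nM HPGD preincubated 15 min at room temperature with compound in 50 mM Tris-HCl pH 8, 0.01% Tween 20. Started with 1 mM NAD+ and 30 uM prostaglandin E2; NADH fluorescence (360/450 nm) read 5 times over 30-s intervals, last minus first.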
An asterisk follows results filed as active; ? = inconclusive; & = joins results of further samples. % is set by controls: 0 for no effect and ±100 for the full control effect; potency is the fitted concentration of half-maximal effect. A portion of the library; rates above refer to the full screens.

A first look:
HPGD inh,compound
-5.2%,CCCSc1nc(N)cc(=O)[nH]1
-18.0%,Cc1ccc(SCCC(=O)Nc2cccc(N(C)S(C)(=O)=O)c2)cc1
-4.6%,Nc1nonc1C(=O)NCCNCc1cc(Br)ccc1OCc1ccc(F)cc1
-15.9%,CCNc1nc(Oc2ccc(C(=O)OC)cc2)nc(SC)n1
-8.2%,COc1ccccc1C(CC(N)=O)c1ccco1 (stereo unspecified)
22.4µM*,CCc1ccc(CNc2ccc(O)cc2)cc1

This part in full, from the start:
HPGD inh,compound
-5.2%,CCCSc1nc(N)cc(=O)[nH]1
-18.0%,Cc1ccc(SCCC(=O)Nc2cccc(N(C)S(C)(=O)=O)c2)cc1
-4.6%,Nc1nonc1C(=O)NCCNCc1cc(Br)ccc1OCc1ccc(F)cc1
-15.9%,CCNc1nc(Oc2ccc(C(=O)OC)cc2)nc(SC)n1
-8.2%,COc1ccccc1C(CC(N)=O)c1ccco1 (stereo unspecified)
22.4µM*,CCc1ccc(CNc2ccc(O)cc2)cc1
?,O=C(Nc1sc2c(c1C(=O)NCc1cccnc1)CCCC2)c1ccco1
-9.2%,CC(NC(=S)Nc1c(Cl)cccc1OC(F)F)C(C)(C)C (stereo unspecified)
-1.9%,C[C@H]1[C@H](C)CC[C@]2(C(=O)O)CC[C@]3(C)C(=CCC4[C@@]5(C)CC[C@H](O)C(C)(C)[C@@H]5CC[C@]43C)[C@H]12 (stereo partly specified)
-15.6%,CCn1c2ccccc2c2cc(N=C3SC(CC(=O)Nc4ccccc4OC)C(=O)N3CCOC)ccc21 (stereo unspecified)
-5.6%,CCOc1ccc(CNC(=O)C2CCN(S(=O)(=O)N3CCCC3)CC2)cc1OC
0.3%,COc1cccc(-n2c(SCC(=O)c3c[nH]c4ccccc34)nc3ccccc3c2=O)c1
-24.6%,Cc1ccc(C)c(OCC(=O)Nc2nc3ccc([N+](=O)[O-])cc3s2)c1C
-26.7%,COc1ccc(/C=C2\SC(=S)N(Cc3cccnc3)C2=O)cc1C
11.2µM*,CC(C)(C)c1ccc(C(=O)OCCNC(=O)c2c(Cl)nc3ccccn23)cc1
-11.3%,COc1cc(C)nc(N(C)S(=O)(=O)c2ccccc2Cl)n1
-2.9%,O=C1OC(NC(=O)c2ccccc2)C(N2CCOCC2)=C1Cl (stereo unspecified)
-3.8%,CC(=O)NC1CC2CCCC(C1)N2CC(=O)NCc1ccc(F)cc1 (stereo unspecified)
?,COc1ccc(N2CCCn3c2nc2c3c(=O)n(Cc3ccccc3F)c(=O)n2C)c(OC)c1
1.2%,COc1ccc(CN2CN=C(Nc3nc4ccccc4s3)NC2)cc1
?,O=C(Nc1ccccc1)OCc1cc(-c2ccccc2Cl)on1
-6.1%,C#CCOc1c(Cl)cc(/C=N/NC(N)=S)cc1OCC
-11.2%,CC(CCc1ccccc1)NC(=O)C1CCCN(C(=O)c2cc3sccc3n2C)C1 (stereo unspecified)
17.8µM*,CCNC(=O)/C(=C/c1ccco1)NC(=O)/C=C/c1ccccc1
-5.8%,CCOC(=O)Nc1sc(NS(=O)(=O)c2ccc(C)cc2)nc1C
1.8%,CCOc1ccc(N2C(=O)CC(NCCc3ccc(S(N)(=O)=O)cc3)C2=O)cc1 (stereo unspecified)
-27.6%,COc1ccc(Cl)cc1NC(=O)C(=O)N/N=C/c1cc(C)n(-c2ccc(C)cc2)c1C
-1.8%,CCCS(=O)(=O)N1CCN(C(=O)c2cc(OC)cc(OC)c2)CC1
-4.0%,COc1ccc(Cc2nnc(SCC(=O)NC3CCCCC3)n2C)cc1
?,COc1cccc(C=Nc2ccccc2C(=O)Nc2ccccc2)c1O
-9.3%,CC(=O)c1ccc(-n2nnnc2SCC(=O)Nc2sc(C)c(C)c2C#N)cc1
-11.1%,Cc1ccnc(SCC(=O)Nc2oc(-c3ccccc3)c(-c3ccccc3)c2C#N)n1
5.1%,CCc1cccc(N(C)C(N)=Nc2cccc3ccccc23)c1
-12.0%,O=C(O)c1cccn1Cc1ccccc1F
1.8%,CC(C)=CCCC1=CCC2C(=O)NNC(=O)C2C1 (stereo unspecified)
-11.6%&-7.6%&-8.4%,CCCCNc1c(C(=O)OCC)c(C)nc2c1cnn2CC
-13.0%,CC1(C)C(=O)C2(CCCCC2)C(=O)OC1c1cccs1 (stereo unspecified)
-1.2%,CC1(C)CC(=O)C2=C(C1)N(c1ccc(F)cc1)C(=O)CC2c1ccsc1 (stereo unspecified)
-5.4%,CN(CCOC(=O)C1c2ccccc2Oc2ccccc21)C(C)(C)C
-0.6%,CC1CCCC(C(=O)O)N1C(=O)CCS (stereo unspecified)
-4.7%,COc1ccccc1N(CC(=O)NC(C)C)S(=O)(=O)c1cccs1
-15.1%,CC(Sc1nc(N2CCCCC2)c2c(c1C#N)CCCC2)C(=O)O (stereo unspecified)
-4.6%,Cc1ccccc1C(=O)NCc1ccncc1
-4.4%,Cc1cc(NC(=O)c2ccc3nc(C)sc3c2)no1
-7.2%,COc1ccc(CN(CCN(C)C)Cc2ccccc2)c(OC)c1
-15.0%,Cc1cccc(C)c1Nc1oc(-c2ccccc2)nc1-c1ccccc1
-0.4%,CC(=O)NS(=O)(=O)c1ccc(NC(=S)NC(=O)C(C)C)cc1
-10.3%,O=C(COc1ccc(S(=O)(=O)Nc2ccccc2)cc1)NCc1cccnc1
-2.0%,Cc1ccc(CCN2CC(C(=O)NCCN3CCOCC3)CC2=O)cc1 (stereo unspecified)
8.91µM*,Clc1ccccc1-c1nnc2sc(CCc3ccccc3)nn12
-19.1%,O=C(Oc1ccc(OC(=O)c2ccco2)c(S(=O)(=O)c2ccc(Cl)cc2)c1)c1ccco1
-5.6%,Cc1ccc(C(=O)NC(=S)NCCN2CCOCC2)cc1
-7.5%,COc1ccccc1NC(=S)NNC(=O)c1c(Cl)c(C)nn1C
-10.0%,COC(=O)c1ccc(C(=O)OC)c(NC(=O)CN(C)Cc2ccc(Cl)c(Cl)c2)c1
?,CN(C)S(=O)(=O)c1cccc(-c2cn3cc(Cl)ccc3n2)c1
-10.5%,CC(=O)N1CCC[C@@]2(CCN(c3ccccc3)C2)C1
3.4%,OC1(c2cccc(C(F)(F)F)c2)CCNCC1
-12.9%,Cn1c(=O)c2c(O)c(Cc3ccccc3)c(=O)[nH]c2n(C)c1=O
-10.5%,COc1ccc(C2=NO[C@@H]3C(=O)N(c4c(C)cccc4C)C(=O)[C@H]23)cc1OC
-4.3%,C#CCOC(=O)C1C2C=CC(C2)C1C(=O)O (stereo unspecified)

(list continues)
HPGD inh,compound
-27.9%,COc1ccc([C@H]2[C@@H](C#N)[C@H](C#N)N3CCCN23)cc1
-12.0%,CC(C)(C)c1ccc(C(=O)N2CCN(CCNC(=O)C(=O)NCc3ccccc3)CC2)cc1
-1.1%,COc1ccc(S(=O)(=O)Cc2ccc(C(=O)NC(C)C)o2)cc1
-11.6%,CCOC(=O)c1oc2ccccc2c1CN1CCN(C)CC1
?,COc1ccc(OC)c(-c2[nH]nc3c2C(c2ccco2)C(C#N)=C(N)O3)c1 (stereo unspecified)
-6.8%,Cc1ccc(C(=O)NCCCNCCCNC(=O)c2ccc(C)nc2)cn1
-9.3%,O=C(NCCc1ccc(Cl)cc1)c1cnc2n(c1=O)CCS2
-14.9%,CCOC(=O)c1[nH]c2ccc(Br)cc2c1NC(=O)CCN1CCC(C)CC1
-14.3%,Cc1nn2c(-n3ccnc3)c3c(nc2c1-c1ccccc1)CCC3
?,COc1ccc(NC(=O)CNS(=O)(=O)c2cccc3nonc23)c(OC)c1
?,Cc1ccc(C)c(N2CCN(c3cnn(-c4nc5ccccc5s4)c(=O)c3Cl)CC2)c1
-6.9%,CCC(C)Sc1nc2c(c(=O)[nH]c(=O)n2C)n1Cc1ccccc1Cl (stereo unspecified)
-3.9%,COC(=O)Nc1ccc(S(=O)(=O)Nc2ccc(C)cc2)cc1
-11.5%,Cc1ccc(N2CCCn3c2nc2c3c(=O)n(CC(=O)OCc3ccccc3)c(=O)n2C)cc1C
?,O=C(CSc1ccc2nnc(-c3ccccc3)n2n1)NCC1CCCO1 (stereo unspecified)
?,O=C1c2ccccc2NC(c2ccccc2)N1Cc1ccco1 (stereo unspecified)
-18.9%,CC(=O)c1cccc(OCC(=O)c2cc(C)n(-c3cc(C)on3)c2C)c1
-7.3%,O=C(NCc1ccco1)c1ccc(CS(=O)(=O)c2cccc(C(F)(F)F)c2)o1
-9.1%,COc1ccc(C(=O)Nn2c(SCc3ccc([N+](=O)[O-])cc3)nc3ccccc3c2=O)cc1
-4.7%,CCOc1ccccc1N(CC(=O)NC1CCCC1)C(=O)CCC(=O)Nc1cc(C)on1
?,CCOC(=O)c1c(NC(=O)Nc2ccc(Cl)cc2)sc(C)c1C
-20.8%,O=C(Nc1nc(SCc2ccc(F)cc2)ns1)c1ccco1
-1.7%,O=C(COC(=O)C1CC(O)CN1S(=O)(=O)c1ccc(Cl)cc1)c1ccccc1Cl (stereo unspecified)
-9.2%,O=S(=O)(c1cccc(NC(=S)N2CCN(c3cccc(Cl)c3)CC2)c1)C(F)F
-15.9%,CC1CC(=O)NN=C1c1ccc(NCCO)c([N+](=O)[O-])c1 (stereo unspecified)
-8.2%,CCCCC(=O)N(c1ccc(OC)cc1)C1C=CS(=O)(=O)C1 (stereo unspecified)
?,COc1cc(S(=O)(=O)N2CCOCC2)ccc1NC(=O)c1cc2c(s1)CCC2
-11.9%,Cc1cc(Cl)cc(Br)c1OCCCCn1cncn1
-27.8%,CC1CCCC(NC(=O)CSc2nccn2C)C1C (stereo unspecified)
-4.5%,CCOC(=O)CSc1nnc(CNC(=O)c2cccs2)n1CCc1ccccc1
-12.3%,Cc1[nH]c(=O)[nH]c(=O)c1S(=O)(=O)N1CCOCC1
31.6µM*,CCOc1ccc(C(=O)NC(=S)Nc2ccc(N3CCCCC3)cc2)cc1[N+](=O)[O-]
?,N#CC(=C1CCCC1)c1nc(-c2ccccc2O)cs1
-2.0%,C/C(=N\NC(=O)c1cccc(Br)c1)c1ccc(Br)cc1
-6.3%,O=C(NCCc1ccncc1)Nc1cccc(Cl)c1
-5.9%,Cc1cc(Cl)c2c(c1)[C@]1(C(=O)N2)[C@@H]2C(=O)N(Cc3ccccc3)C(=O)[C@@H]2[C@@H]2CCCN21
-4.9%&-8.6%,CCCCCCCC1=Cc2ccc(F)cc2C(C(C(C)=O)C(=O)OC)N1C(=O)OC (stereo unspecified)
-27.5%,CCCOC(=O)c1ccc(OCC(O)Cn2c(C)nc3ccccc32)cc1 (stereo unspecified)
-5.5%,Cc1cccc(NC(=O)CCN2C(=O)C3C4C=CC(C4)C3C2=O)n1 (stereo unspecified)
-18.7%,CCOC(=O)Cn1c(C)c(Br)c(=O)c2cccc(C)c21
-7.1%,N#Cc1ccc(CS(=O)(=O)c2ccccc2)cc1
-21.3%,CC1CN(c2nc3ccccc3nc2C(C#N)C(=O)NCc2ccc3c(c2)OCO3)CC(C)O1 (stereo unspecified)
-15.6%,O=C(NC12CC3CC(CC(C3)C1)C2)N1CCN(c2ccccn2)CC1
-7.4%,CC(=O)Nc1nc2ncc(C=O)nc2c(=O)[nH]1
1.2%,COC(=O)Nc1ccc(C)c(NC(=O)OC)c1
-7.9%,COC(=O)c1[nH]c2ccccc2c1NS(=O)(=O)c1ccc(F)c(C)c1
-18.1%,CNS(=O)(=O)c1cccc(C(=O)OCC(=O)Nc2ccccc2OC(F)F)c1
-5.4%,O=C1CC(NCc2ccncc2)C(=O)N1c1ccccc1 (stereo unspecified)
-14.6%,COc1cccc(-c2nnn(CCc3nn[nH]n3)n2)c1
-23.7%,COc1ccc(CSCC(=O)Nc2ccccc2SC)cc1
-0.4%,O=C(Cn1c(=O)n(-c2ccccc2)c(=O)n1CC(=O)N1CCCCC1)N1CCCCC1
?,O=C(O)c1ccccc1NCn1c(=S)sc2ccccc21
-2.6%,CN1C(c2ccc(F)cc2)=CS/C1=C(/C#N)c1nnc(N2CCOCC2)n1-c1ccccc1
-19.0%,COc1ccccc1NC(=O)CSc1nc(C)c2c(c1C#N)CCCC2
-1.9%,O=C(c1cccc(S(=O)(=O)N2CCCC2)c1)N1CCN(c2ccccc2)CC1
-1.4%,Cc1cc(F)ccc1S(=O)(=O)Nc1c(C)n(C)n(-c2ccccc2)c1=O
-5.9%,O=C(O)CC1SC(=Nc2ccccc2)N(c2ccccc2)C1=O (stereo unspecified)
-18.4%,CCSc1nnc(-c2ccccc2N)c(=O)[nH]1
2.6%,COc1ccc(OC)c(S(=O)(=O)N2CCC(C(=O)Nc3cccc(C(F)(F)F)c3)CC2)c1
0.8%,Cc1ccc(CN2CCC(c3nc4ccc(Cl)cc4[nH]3)CC2)cc1

Molecules shown so far that contain bromine, in the order listed:
HPGD inh,compound
-4.6%,Nc1nonc1C(=O)NCCNCc1cc(Br)ccc1OCc1ccc(F)cc1
-14.9%,CCOC(=O)c1[nH]c2ccc(Br)cc2c1NC(=O)CCN1CCC(C)CC1
-11.9%,Cc1cc(Cl)cc(Br)c1OCCCCn1cncn1
-2.0%,C/C(=N\NC(=O)c1cccc(Br)c1)c1ccc(Br)cc1
-18.7%,CCOC(=O)Cn1c(C)c(Br)c(=O)c2cccc(C)c21

(continued)
HPGD inh,compound
-12.4%,O=C(NCCCn1ccnc1)c1ccc(Cl)c(S(=O)(=O)N2CCOCC2)c1
-29.9%,CCOc1ccc(N(CC(=O)OC)S(=O)(=O)c2ccc3c(c2)n(C)c(=O)c(=O)n3C)cc1
-6.9%,O=C(Nc1ccc(Cl)c(-c2nc3ccccc3[nH]2)c1)c1cccnc1
-0.9%,COc1ccccc1CNC(=O)C1CCCN(S(=O)(=O)c2cccc3cccnc23)C1 (stereo unspecified)
1.0%,CCOC(=O)Nc1ccc2c(c1)N(C(=O)OCCN(C)C)c1ccccc1CC2
-6.5%,Cc1ccc(S(=O)(=O)N2CCN(C(=O)CN3CCOCC3)C2c2ccccc2)cc1 (stereo unspecified)
